AF4-AF9 inh: MLL-AF4/AF9 protein interaction inhibition; P42568; inhibition, % at 10 µM; AlphaScreen, biotin-AF4 peptide binding to FLAG-AF9; 350,000 tested, 0.47% active;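 active = every replicate reaching a set inhibition limit, whatever the replicate mean, cut at about 25% in these data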;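 also: 0% = plate neutral control median and 100% = total signal loss; the record names both 10 and 1 µM as test concentration; the first replicate is given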
Target sequence (P42568 whole entry, looked up): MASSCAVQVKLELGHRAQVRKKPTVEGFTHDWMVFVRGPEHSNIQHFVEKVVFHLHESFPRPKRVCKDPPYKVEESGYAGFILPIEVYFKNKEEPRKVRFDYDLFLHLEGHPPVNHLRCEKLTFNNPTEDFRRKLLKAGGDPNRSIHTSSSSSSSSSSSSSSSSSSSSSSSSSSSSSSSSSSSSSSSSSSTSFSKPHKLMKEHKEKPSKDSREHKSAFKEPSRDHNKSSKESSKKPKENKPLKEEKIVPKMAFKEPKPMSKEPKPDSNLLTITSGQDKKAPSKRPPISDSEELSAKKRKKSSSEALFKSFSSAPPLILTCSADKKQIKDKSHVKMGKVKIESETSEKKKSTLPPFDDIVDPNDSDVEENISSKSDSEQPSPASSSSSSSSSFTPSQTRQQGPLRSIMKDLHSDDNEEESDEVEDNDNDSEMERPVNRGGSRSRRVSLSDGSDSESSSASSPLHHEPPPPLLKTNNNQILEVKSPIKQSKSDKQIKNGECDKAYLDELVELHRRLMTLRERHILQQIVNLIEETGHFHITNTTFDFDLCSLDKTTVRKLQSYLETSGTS
HNF4A DNA FP: change in binding of human HNF4 alpha to DNA; P41235; activity change, % at 10 µM; 360,000 tested, 0.3% active; HNF4a-FITC DNA binding, fluorescence polarization, 1 h; in the data active = activity change above about 30%, passing the limit was not always enough;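 also: controls were the assay level and a saturating level of protein; the project sought stronger binding though the title names inhibitors; some compounds called inactive have numbers as strong as hits; positive values seem to mean higher polarization but the record does not say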
Ecoli rRNA inh: selective bacterial rRNA inhibition in E. coli; E. coli WT GFP vs humanized-ribosome RFP mutants, fluorescence, 24 h; active compounds read low; DMSO median 0, no signal -100; 350,000 tested, 1.6% active; GFP signal change (wild-type ribosome), % (test concentration not listed);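 active = significant combined selectivity score with lowered wild-type GFP, culture density cut under 30%, mutant RFP and density less affected; inactive = any of these conditions unmet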; also: one replicate is shown; some compounds called inactive have numbers as strong as hits
ALR inh: inhibitors of human sulfhydryl oxidase ALR. purified ALR, DTT oxidation, H2O2 HRP-luminol luminescence. inhibition, % (no concentration beside the values). 290,000 tested, 3.8% active. P55789. AID 485317;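 active = mean and each replicate at 75% or more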;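 also: stock transfer was 7.5 nL into about 7.5 µL; 0% = neutral wells and 100% = wells with inactivated enzyme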
Target sequence (P55789 whole entry, looked up): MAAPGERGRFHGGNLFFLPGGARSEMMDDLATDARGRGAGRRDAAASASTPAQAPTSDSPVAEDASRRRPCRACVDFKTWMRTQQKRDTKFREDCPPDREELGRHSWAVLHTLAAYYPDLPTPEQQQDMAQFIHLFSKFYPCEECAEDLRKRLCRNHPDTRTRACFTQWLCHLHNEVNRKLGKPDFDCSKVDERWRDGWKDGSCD
Vif A3G: inhibitors of Vif binding to APOBEC3G peptide, primary screen, biochemical, TR-FRET, GST-Vif 1-94, biotin-A3G peptide, dose response retest (AID 1117319) | 260,000 tested, 0.57% active | TR-FRET GST-Vif / biotin-A3G peptide binding; higher % means a stronger effect; test concentration not given here; strong numbers were not always called active | one-dose inhibition, %; IC50 in µM for titrated hits;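 active = above the screen mean plus three standard deviations and confirmed in dose response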;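 also: Vif residues 1-94 fused to GST binding biotinylated APOBEC3G peptide 110-148; 0% = full assay without inhibitor and 100% = GST in place of GST-Vif; retest series ran down from 100 µM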
FGF22 binding: FGF22 (human) thermal shift binding; recombinant FGF22 thermal shift, SYPRO orange fluorescence; percent of sucrose octasulfate shift, DMSO zero; calls only at 9.99 µM; 340,000 tested, 1.5% active; AID 651658;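 active = melting point raised past a set limit in the mean and every replicate; three in four hits are not shown here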
Target sequence (Q9HCT0 whole entry, looked up): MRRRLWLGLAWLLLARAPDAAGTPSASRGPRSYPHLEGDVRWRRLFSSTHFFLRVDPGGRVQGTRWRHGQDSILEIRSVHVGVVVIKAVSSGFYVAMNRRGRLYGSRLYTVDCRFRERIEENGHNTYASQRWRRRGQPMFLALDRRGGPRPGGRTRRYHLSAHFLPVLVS
E coli growth: E. coli growth inhibition; Escherichia coli growth, OD600, 23 h; active compounds read low; 330,000 tested, 0.21% active; OD600 absorbance (test concentration not listed);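 active = OD600 absorbance below the run mean of sample wells minus 3.6 SD, in any replicate, cut at about 0.56 in these data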;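 also: stock transfer was 300 nL into about 60 µL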
Ecoli rRNA inh OD600: second read-out of Ecoli rRNA inh, no call of its own (marks repeat the call); OD600 change, %; measured here: OD600 growth;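 optical density of the mix in the first replicate; 0 = DMSO median and -100 = no signal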
Ecoli rRNA inh RFP: further read-out of Ecoli rRNA inh, marked with its call; RFP signal change, %; measured here: RFP humanized mutant strains;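 first replicate; 0 = DMSO median and -100 = no signal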
Numbers without * were called inactive; & = joins results of further samples. The list is partial, so the mix of outcomes need not match the whole.

Screening CC1CCCCN1CCCNC(=O)CN1C(=O)CSc2ccc(S(=O)(=O)N3CCOCC3)cc21 (stereo not drawn) returned AF4-AF9 inh -0.9, HNF4A DNA FP 0.5, Ecoli rRNA inh 11, ALR inh 0, Vif A3G -2%, FGF22 binding inactive, E coli growth 0.67, Ecoli rRNA inh OD600 9 and Ecoli rRNA inh RFP 0.0.
Screening N#Cc1nc(-c2ccc(OCc3ccc(Cl)cc3)cc2)oc1NCc1cccnc1 returned HNF4A DNA FP -5.0, ALR inh -9, Vif A3G 1% and E coli growth 0.71.
CNc1nc(SCC(=O)Nc2ccccc2)nc(N2CCOCC2)n1 was read as AF4-AF9 inh 0.4, HNF4A DNA FP 0.1, Ecoli rRNA inh 7, ALR inh -2, FGF22 binding inactive, E coli growth 0.73, Ecoli rRNA inh OD600 6 and Ecoli rRNA inh RFP -1.2.
For c1ccc(NCCC2OCC3(CO2)COC(CCNc2ccccc2)OC3)cc1 (stereo not drawn) the results were AF4-AF9 inh 2.5, HNF4A DNA FP 1.7, Ecoli rRNA inh -3, Vif A3G -7%, FGF22 binding inactive, E coli growth 0.72, Ecoli rRNA inh OD600 -13 and Ecoli rRNA inh RFP 5.5.
CCCNC(=O)C(Cc1ccccc1)NC(=O)c1ccccn1 (stereo not drawn) was read as AF4-AF9 inh -12, HNF4A DNA FP 1.1, Ecoli rRNA inh 9, ALR inh 2, FGF22 binding inactive, E coli growth 0.64, Ecoli rRNA inh OD600 5 and Ecoli rRNA inh RFP 7.2.
Screening CCNC(=O)C1(C)CCN(C(=O)c2ccc(-c3ccccc3)cc2)C1 (stereo not drawn) returned AF4-AF9 inh -0.7, HNF4A DNA FP -1.1, Ecoli rRNA inh -7, FGF22 binding inactive, Ecoli rRNA inh OD600 -4 and Ecoli rRNA inh RFP 1.5.
`COc1cc(Cl)c(C)cc1NC(=O)Cn1c(NCCO)nc2ccccc21` gave AF4-AF9 inh 7.3, HNF4A DNA FP -0.9, Ecoli rRNA inh -10, ALR inh -1, Vif A3G 13%, FGF22 binding inactive, E coli growth 0.62, Ecoli rRNA inh OD600 -7 and Ecoli rRNA inh RFP 3.7.
Screening Cc1ccccc1Nc1scc(-c2ccc(Br)cc2)[n+]1-c1ccccc1C returned AF4-AF9 inh 7.3, HNF4A DNA FP 4.3, Ecoli rRNA inh 4, Vif A3G 3%, FGF22 binding inactive, E coli growth 0.77, Ecoli rRNA inh OD600 7 and Ecoli rRNA inh RFP 0.4.
For COCC(=O)N(C)c1nnc(-c2cnc(C)cn2)s1 the results were HNF4A DNA FP -0.7, ALR inh -6, Vif A3G -1% and E coli growth 0.74.
O=C(CN1C(=O)C2C3C=CC(C3)C2C1=O)OCC(=O)c1ccc(Cl)c([N+](=O)[O-])c1 (stereo not drawn) was read as AF4-AF9 inh -0.1, HNF4A DNA FP -0.2, Ecoli rRNA inh 3, ALR inh -7, FGF22 binding inactive, E coli growth 0.72, Ecoli rRNA inh OD600 5 and Ecoli rRNA inh RFP 1.6.
Screening CCCNC1=C(C)C(=O)CC1 returned HNF4A DNA FP 2.0, ALR inh -4, Vif A3G 3% and E coli growth 0.69.
For CC(C)(C)CN1CCNC(=O)C1CC(=O)N1CCN(c2ccccc2)CC1 (stereo not drawn) the results were AF4-AF9 inh 0.9, HNF4A DNA FP -3.0, Ecoli rRNA inh 5, ALR inh 18, Vif A3G 3%, FGF22 binding inactive, E coli growth 0.72, Ecoli rRNA inh OD600 5 and Ecoli rRNA inh RFP -2.9.
`Cc1cccc(NC(=O)c2cccc(OC(=S)N3CCOCC3)c2)c1` gave AF4-AF9 inh -1.7, HNF4A DNA FP -2.4, Ecoli rRNA inh -7, ALR inh 2, FGF22 binding inactive, E coli growth 0.7, Ecoli rRNA inh OD600 0 and Ecoli rRNA inh RFP -0.6.
Screening Cc1ccc(Nc2nc(N3CCOCC3)nc(N3CCOCC3)n2)cc1 returned HNF4A DNA FP 1.8, ALR inh 1, Vif A3G -1% and E coli growth 0.69.
`C[C@@H]1CCCCO[C@@H](CN(C)C(=O)Nc2ccc(F)cc2)[C@H](C)CN([C@H](C)CO)C(=O)c2cc(NS(=O)(=O)c3cccs3)ccc2O1` gave AF4-AF9 inh -1.7, Ecoli rRNA inh -1, FGF22 binding inactive, Ecoli rRNA inh OD600 0 and Ecoli rRNA inh RFP -0.1.
`O=C(c1cc(S(=O)(=O)N2CCCCC2)ccc1Cl)N1CCOCC1` gave AF4-AF9 inh -1.2, HNF4A DNA FP 1.2, Ecoli rRNA inh 2, ALR inh 1, FGF22 binding inactive, E coli growth 0.62, Ecoli rRNA inh OD600 12 and Ecoli rRNA inh RFP -2.3.
`CCCC(=O)N1CC2(C1)CN(S(C)(=O)=O)[C@H](CO)c1c2c2ccc(OC)cc2n1C` gave AF4-AF9 inh 1.6, Ecoli rRNA inh 1, FGF22 binding inactive, Ecoli rRNA inh OD600 12 and Ecoli rRNA inh RFP -2.0.
Screening COCCCNC(=O)CS(=O)Cc1nc(-c2cccc(OC)c2)oc1C (stereo not drawn) returned HNF4A DNA FP -1.6, ALR inh 99*, Vif A3G 10% and E coli growth 0.7.
For O=C(COC(=O)c1cc[n+]([O-])cc1)NCCc1ccc(Cl)cc1Cl the results were AF4-AF9 inh -1.3, HNF4A DNA FP -1.7, Ecoli rRNA inh 2, ALR inh 2, Vif A3G 3%, FGF22 binding inactive, E coli growth 0.66, Ecoli rRNA inh OD600 -3 and Ecoli rRNA inh RFP 0.4.
Screening CCc1ccc(-c2nc(C(N)=O)c3[nH]c(=O)n(-c4ccccc4OC)c3n2)cc1 returned AF4-AF9 inh -10, HNF4A DNA FP 3.9, Ecoli rRNA inh 3, ALR inh -2, Vif A3G -1%, FGF22 binding inactive, E coli growth 0.72, Ecoli rRNA inh OD600 7 and Ecoli rRNA inh RFP 3.3.
COc1ccc(OC)c(-c2cc(C(=O)NCc3ccc(Cl)cc3)no2)c1 was read as AF4-AF9 inh -15, HNF4A DNA FP 1.7, Ecoli rRNA inh 7, ALR inh -4, Vif A3G -6%, FGF22 binding inactive, E coli growth 0.69, Ecoli rRNA inh OD600 10 and Ecoli rRNA inh RFP 5.1.
`Cc1ccc(-c2nc(CS(=O)CC(=O)NCc3ccc(F)cc3)c(C)o2)cc1` (stereo not drawn) gave AF4-AF9 inh -0.3, HNF4A DNA FP 1.9, Ecoli rRNA inh 1, ALR inh 99*, FGF22 binding inactive, E coli growth 0.76, Ecoli rRNA inh OD600 10 and Ecoli rRNA inh RFP 1.4.
Screening FC(F)(F)COc1ccc(-c2nnc(SCc3c(Cl)cccc3Cl)o2)cn1 returned AF4-AF9 inh 1.4, HNF4A DNA FP 16, ALR inh -1, Vif A3G -2%, FGF22 binding inactive and E coli growth 0.66.
`COc1ccc(NC(=O)C2Cc3ccccc3CN2C(=O)c2ccccc2)cn1` (stereo not drawn) gave HNF4A DNA FP -28, Vif A3G -2% and E coli growth 0.71.

Overlap with the part before: four compounds, then new ones.
COc1ccc(OC)c(-c2cc(C(=O)NCc3ccc(Cl)cc3)no2)c1 was read as AF4-AF9 inh -15, HNF4A DNA FP 1.7, Ecoli rRNA inh 7, ALR inh -4, Vif A3G -6%, FGF22 binding inactive, E coli growth 0.69, Ecoli rRNA inh OD600 10 and Ecoli rRNA inh RFP 5.1.
`Cc1ccc(-c2nc(CS(=O)CC(=O)NCc3ccc(F)cc3)c(C)o2)cc1` (stereo not drawn) gave AF4-AF9 inh -0.3, HNF4A DNA FP 1.9, Ecoli rRNA inh 1, ALR inh 99*, FGF22 binding inactive, E coli growth 0.76, Ecoli rRNA inh OD600 10 and Ecoli rRNA inh RFP 1.4.
Screening FC(F)(F)COc1ccc(-c2nnc(SCc3c(Cl)cccc3Cl)o2)cn1 returned AF4-AF9 inh 1.4, HNF4A DNA FP 16, ALR inh -1, Vif A3G -2%, FGF22 binding inactive and E coli growth 0.66.
`COc1ccc(NC(=O)C2Cc3ccccc3CN2C(=O)c2ccccc2)cn1` (stereo not drawn) gave HNF4A DNA FP -28, Vif A3G -2% and E coli growth 0.71.
Screening C=CCNC(=O)/C(C#N)=C/c1c(C)nn(-c2ccc(Cl)cc2)c1Cl returned AF4-AF9 inh -1.1, HNF4A DNA FP 5.6, Ecoli rRNA inh 1, ALR inh 5, E coli growth 0.71, Ecoli rRNA inh OD600 0 and Ecoli rRNA inh RFP 2.4.
COc1cccc(CN(C)CC(=O)NCc2ccccc2Cl)c1 was read as AF4-AF9 inh 1.6, HNF4A DNA FP -1.1, ALR inh 0, Vif A3G 10%, FGF22 binding inactive and E coli growth 0.66.
Screening COc1cccc(-c2ccc3c(c2)O[C@@H](CN(C)C(=O)C2CC2)[C@@H](C)CN([C@@H](C)CO)S3(=O)=O)c1 returned AF4-AF9 inh 2.2, Ecoli rRNA inh 1, FGF22 binding inactive, Ecoli rRNA inh OD600 0 and Ecoli rRNA inh RFP 3.2.
For CCC(=O)N1[C@H](CO)[C@H](c2ccccc2)C12CN(C(=O)c1ccc(F)cc1)C2 the results were AF4-AF9 inh -1.1, Ecoli rRNA inh -2, FGF22 binding inactive, Ecoli rRNA inh OD600 -4 and Ecoli rRNA inh RFP -2.2.
CC(C)NC(=O)COC(=O)c1ccccc1CSC1=NCCS1 was read as AF4-AF9 inh -0.7, HNF4A DNA FP 3.6, Ecoli rRNA inh 3, ALR inh 0, E coli growth 0.65, Ecoli rRNA inh OD600 4 and Ecoli rRNA inh RFP -3.1.
Cc1ccsc1C(=O)NN=C1CCCCCC1 was read as AF4-AF9 inh -2.8, HNF4A DNA FP 1.9, Ecoli rRNA inh 5, ALR inh -11, FGF22 binding inactive, E coli growth 0.68, Ecoli rRNA inh OD600 11 and Ecoli rRNA inh RFP 0.1.
For COc1ccc(C(CNC(=O)c2nn(-c3ccccc3)c(=O)c3ccccc23)N2CCOCC2)cc1 (stereo not drawn) the results were AF4-AF9 inh -13, HNF4A DNA FP 6.3, Ecoli rRNA inh -3, Vif A3G 5%, FGF22 binding inactive, E coli growth 0.62, Ecoli rRNA inh OD600 -1 and Ecoli rRNA inh RFP -0.3.
`COc1ccc(NC(=O)c2c(C(F)(F)F)nn(C)c2Cl)cc1` gave AF4-AF9 inh 1.0, HNF4A DNA FP -3.4, Ecoli rRNA inh 10, ALR inh -16, Vif A3G 23%, FGF22 binding inactive, E coli growth 0.66, Ecoli rRNA inh OD600 0 and Ecoli rRNA inh RFP -1.8.
Cn1ncc2c(Nc3ccc(Cl)cc3)ncnc21 was read as AF4-AF9 inh -0.3, HNF4A DNA FP -4.8, Ecoli rRNA inh 3, ALR inh -1, Vif A3G -1%, FGF22 binding inactive, E coli growth 0.67, Ecoli rRNA inh OD600 3 and Ecoli rRNA inh RFP -4.8.
CCOc1cc(/C=C(/C#N)c2nc3ccccc3[nH]2)ccc1OCc1ccc(C(=O)O)o1 was read as HNF4A DNA FP 0.6, ALR inh 13 and Vif A3G 16%.
`Cc1cccc(N2CCN(C(=O)c3c(C)nn(Cc4ccccc4Cl)c3C)CC2)c1C` gave HNF4A DNA FP -1.3, ALR inh -12, Vif A3G -1%&-5% and E coli growth 0.74.
Cc1cc(N(CC(=O)NC2CC2)S(C)(=O)=O)ccc1Br was read as AF4-AF9 inh -1.4, HNF4A DNA FP -3.0, Ecoli rRNA inh 16, ALR inh 11, FGF22 binding inactive, E coli growth 0.73, Ecoli rRNA inh OD600 9 and Ecoli rRNA inh RFP -2.2.
Cc1noc(C)c1COc1ccccc1C(=O)NNC(=O)c1ccccc1 was read as AF4-AF9 inh -19, HNF4A DNA FP 28, Ecoli rRNA inh 5, ALR inh 2, Vif A3G -4%, FGF22 binding inactive, E coli growth 0.7, Ecoli rRNA inh OD600 -12 and Ecoli rRNA inh RFP 4.8.

Screening results as filed in PubChem BioAssay.
